Screening results from PubChem BioAssay.
VDR inh: blocks the human vitamin D receptor; P11473; VDR-SRC2-3 peptide fluorescence polarization, 2 h; Potency, µM, for the others: max response, negative = inhibition, most hits filed as inhibitors; 0.93% of 400,000 active; AID 504847; active = well fitted inhibition curve with a large enough effect; inconclusive = small, poorly fitted or top-dose-only effect, or another doubt; inactive = no such curve, though single readings can be large or run the other way; note: series mostly up to about 120 µM
Target sequence (P11473 whole entry, looked up): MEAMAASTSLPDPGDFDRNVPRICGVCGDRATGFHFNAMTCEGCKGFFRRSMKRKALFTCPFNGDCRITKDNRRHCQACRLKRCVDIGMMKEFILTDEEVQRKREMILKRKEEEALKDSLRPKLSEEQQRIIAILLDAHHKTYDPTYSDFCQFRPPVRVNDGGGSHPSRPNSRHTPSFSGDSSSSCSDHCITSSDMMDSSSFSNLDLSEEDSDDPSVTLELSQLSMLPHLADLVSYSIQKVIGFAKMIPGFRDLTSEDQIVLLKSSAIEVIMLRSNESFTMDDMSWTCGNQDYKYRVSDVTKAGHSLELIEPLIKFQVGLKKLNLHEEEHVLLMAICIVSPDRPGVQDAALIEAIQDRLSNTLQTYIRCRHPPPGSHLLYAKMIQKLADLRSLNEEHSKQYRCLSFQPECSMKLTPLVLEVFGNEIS
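Measured by FP: displacement of SRC2-3 coactivator peptide from VDR by library compounds, following a two-hour ambient incubation.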
Active calls of the source: *; ? = inconclusive; [ ] = remark or other dose. % is set by controls: 0 for no effect and ±100 for the full control effect; potency is the fitted concentration of half-maximal effect. Not all compounds are listed (hit frequency here may not be typical).

SMILES	VDR inh
O=C(c1ccc2c(c1)OCO2)C1CCCN(Cc2cn[nH]c2-c2cccc(F)c2)C1 (configuration not stated)	22.0%
O=S(=O)(NCCN1CCOCC1)c1ccc(F)c(Cl)c1	?
CC[N+](CC)(CC)CC[C@](O)(c1ccccc1)C1CCCCC1	-12.1%
CCC[C@@H]1CC2=CC(=O)CC[C@]2(C)[C@H]2CC[C@@]3(C)[C@@H](CC[C@@]34CCC(=O)O4)[C@H]12	?
CC1(C)CC(NC(=O)c2cccc(F)c2)CC(C)(C)N1	24.3%
CC(C)(C)n1ncc2c(=O)n(CC(=O)N3CCCc4ccccc43)cnc21	-4.8%
c1cncc(C(c2nnnn2C2CCCCC2)N2CCN3CCCC3C2)c1 (configuration not stated)	19.3%
CCOC(=O)N/N=C/c1ccccc1-c1cc(OC)ccc1OC	-1.6%
Cc1ccc(NC(=O)COC(=O)/C=C/c2cccs2)cc1	-12.4%
Cc1cccc(N(C(=O)CNC(=O)c2ccco2)C(C(=O)NC2CCCC2)c2cccnc2)c1 (configuration not stated)	10.9%
O=C(c1cc(COc2ccc(F)cc2F)on1)N1CCCC(c2ccccc2)C1 (configuration not stated)	-6.1%
CCN(CC)C(=O)c1ccc(-c2cccs2)s1	18.7%
CCOC(=O)c1cc(C#N)c(Oc2ccccc2OC)nc1-c1ccccc1	-2.3%
CC(C)c1ccc(S(=O)(=O)N2CCN(C(=O)c3cc([N+](=O)[O-])ccc3N3CCOCC3)CC2)cc1	?
Cc1ccc(S(=O)(=O)N(C)C)cc1NC(=O)COC(=O)Cc1ccc(Br)cc1	?
O=C(NCCCCCNC(=O)c1ccco1)c1ccco1	-13.2%
O=C(Nc1ccc2ncccc2c1)Nc1ccc2ncccc2c1	-2.2%
Cc1nn(-c2ccccc2)c(N2CCCC2)c1/C=N/O	10.8%
CCOc1ccc(C(=O)NCC(=O)OCc2cc([N+](=O)[O-])cc3c2OCOC3)cc1OCC	-4.6%
CCc1ccc2[nH]c(=O)c(CN(Cc3ccco3)S(=O)(=O)c3ccc4c(c3)OCCO4)cc2c1	-3.5%
Cc1cccc(N(CC(=O)NCc2ccc3c(c2)OCO3)C(=O)CCC(=O)Nc2ccccn2)c1C	7.6%
O=C(NCCc1ccc(Cl)cc1)C1CCN(S(=O)(=O)c2cccc3nonc23)CC1	7.2%
CCOc1ccc(NC(=O)CC2C(=O)N(c3ccc(C)cc3)C(=O)N2Cc2ccc(OC)cc2)cc1 (configuration not stated)	-5.4%
Cc1ccc(C(=O)N2CCN(c3ccc(NC(=O)c4cccs4)cc3)CC2)cc1	-5.3%
Cc1ccc(NS(=O)(=O)c2cc(OCC(N)=O)c(C)cc2Cl)cc1	-3.9%
SMILES	VDR inh
CCOC(=O)c1nc(C)sc1-c1ccnn1S(=O)(=O)c1ccc(C)cc1	43.7%[activator]
CCOC(=O)c1cnc(SCC(=O)c2ccc(Cl)cc2)nc1N	-12.7%
CCCOc1ccc(CNC(=O)c2oc3ccc4c(c3c2C)C(=O)CC(C)(CC)O4)cc1 (configuration not stated)	4.5%
COc1cc(NC2c3ccccc3C(=O)N2Cc2ccc3c(c2)OCO3)cc(OC)c1 (configuration not stated)	-11.7%
COc1cc(OC)cc(C(=O)N2CCN(C3CCN(Cc4ccccc4)CC3)CC2)c1	15.0%
CCOC(=O)C1=C(C)N(CCCC(=O)O)C(=O)NC1c1cccs1 (configuration not stated)	-16.2%
Cc1cc(CSC(=N)N)c(CSC(=N)N)cc1C	-6.9%
CC(C)n1cnnc1SCC(=O)Nc1ccc(Br)cc1F	13.7%
Cc1ccc(C)c(Cn2c(SCC(=O)N(C)Cc3ccccc3)nc3ccccc32)c1	5.4%
O=C(NC1CCCCC1)C1CCCN1C(=O)Nc1ccccc1 (configuration not stated)	-15.0%
CCn1nnnc1SCC(=O)Nc1cc(OC)cc(OC)c1	-21.2%
COc1ccc(/C=N/NC(=O)C2CCN(c3ncc(C(F)(F)F)cc3Cl)CC2)cc1	4.7%
Cc1cccc(C)c1OCC(=O)Nc1ccccc1C(=O)N1CCOCC1	11.1%
COc1ccc(N2CCN(C(=O)/C=C/c3ccco3)CC2)cc1	-12.1%
COc1ccc(-n2c(SCC(=O)N3CCc4ccccc43)nnc2-c2c[nH]c3ccccc23)cc1	-5.2%
O=C(O)Cc1cc2ccccc2nc1C(=O)O	5.5%
CCOC(=O)C1=NNC(C(=O)c2ccc(Cl)cc2)C1c1ccccc1 (configuration not stated)	-8.6%
O=C(Cn1c(O)c(/C=C2\C=Nc3ccccc32)sc1=O)N1CCOCC1	0.0%
O=C(Nc1ccccc1C(F)(F)F)c1ccccc1Br	1.0%
COc1ccc(-c2noc(N(C)CC(=O)Nc3cccc(C(F)(F)F)c3)n2)cc1	-4.0%
O=C(Nc1cccc(Cl)c1)NC1CCN(C2CCCCC2)C1 (configuration not stated)	35.3%[activator]
Cc1sc(-c2ccccn2)nc1OC(=O)c1ccc(Cl)c(Cl)c1	-14.2%
O=C(c1cccc(Cl)c1)N1CCN(C2CCCCCC2)CC1	-3.2%
COc1ccc(Nc2cc(C)c3cc(NC(=O)Cc4ccc(Cl)cc4)ccc3n2)cc1	-1.2%
COc1ccc2cc(C3NC(=O)c4ccccc4N3)c(Cl)nc2c1 (configuration not stated)	13.9%
SMILES	VDR inh
COc1cccc2c3c(c(C)nc12)CC(C)O3 (configuration not stated)	7.8%
CCCCN(C(=S)Nc1cccc(C)c1C)c1c(N)n(CCC)c(=O)[nH]c1=O	-5.7%
CC1Oc2ccccc2C=C1/C=C1/SC(N2CCOCC2)=NC1=O (configuration not stated)	-18.7%
COC(=O)[C@@]1(C)[C@H]2C(=O)N(C)C(=O)[C@H]2[C@H]2CN(C)C(=NC3CCCCC3)N21	-9.0%
CSc1ccc(/C=N/NC(=O)c2ccc(O)cc2)cc1	6.0%
O=C1COCCOCCOCCOCC(=O)NCCN1	3.4%
Cc1ccc(Sc2ccc(S(=O)(=O)Nc3ccc(C(=O)O)cc3)cc2)cc1C	-30.0%
Cc1[nH]c2ccccc2c1C(C[N+](=O)[O-])c1ccco1 (configuration not stated)	1.5%
COc1ccc(/C=C2/SC(=S)N(CCCC(=O)Nc3ccccc3C(=O)O)C2=O)cc1	?
COc1ccc(S(=O)(=O)NCC2CCCN(C(=O)CC3CCCC3)C2)cc1 (configuration not stated)	-20.8%
CCc1ccc2c(c1)c(N=NC1=NC(=O)CS1)c(O)n2CC	3.7%
CC1CCCCN1CC(=O)Nc1ccc(N2CCCCCC2)cc1 (configuration not stated)	-7.5%
Cn1c(Cl)nc2ccccc21	-7.6%
COc1ccccc1N1CCN(C(=O)c2ccc(N3CCCCS3(=O)=O)cc2)CC1	-11.8%
O=C1CCN(Cc2cccnc2)CCN1[C@H](CO)c1ccccc1	5.3%
O=C(c1cc(-c2cccc3ccccc23)nc2ccccc12)N1CCN(CCO)CC1	14.0%
COc1ccc(CCN=C(N)NS(=O)(=O)c2ccc(F)cc2)cc1	0.7%
Brc1cc2c(cc1-c1nc3ccccc3s1)OCO2	-0.5%
CCOc1ccc(NC(=O)CN(C)C(=O)CCc2ccccc2Cl)cc1OCC	6.1%
Cc1ccc2oc(C(=O)N3CCN(CC(=O)NC(C)C)CC3)c(C)c2c1	4.8%
CCC(=O)Nc1nnc(S(=O)(=O)N(CC)c2cc(C)cc(C)c2)s1	-1.4%
CSCCC(NC(=O)c1ccc(Cl)cc1)C(=O)OCC(=O)c1ccc[nH]1 (configuration not stated)	1.6%
O=C(NC1CCN(S(=O)(=O)c2cccc(Cl)c2)CC1)C1CCCCC1	0.2%
CC1(CN2CCC(n3c(=O)[nH]c4ccccc43)CC2)OCc2ccccc2-n2cccc21 (configuration not stated)	-13.0%
Cc1ccc2c(c1)NC(=O)C(CC(=O)NC1CCCCC1C)O2 (configuration not stated)	-8.9%

Ordered by molecular weight (high to low): seven of the compounds above
SMILES	VDR inh
COc1ccc(/C=C2/SC(=S)N(CCCC(=O)Nc3ccccc3C(=O)O)C2=O)cc1	?
COc1ccccc1N1CCN(C(=O)c2ccc(N3CCCCS3(=O)=O)cc2)CC1	-11.8%
CCOc1ccc(NC(=O)CN(C)C(=O)CCc2ccccc2Cl)cc1OCC	6.1%
O=C(NC1CCN(S(=O)(=O)c2cccc(Cl)c2)CC1)C1CCCCC1	0.2%
CC1CCCCN1CC(=O)Nc1ccc(N2CCCCCC2)cc1 (configuration not stated)	-7.5%
CCc1ccc2c(c1)c(N=NC1=NC(=O)CS1)c(O)n2CC	3.7%
O=C1COCCOCCOCCOCC(=O)NCCN1	3.4%

Back to the main list, repeating the 4 entries before the break.
SMILES	VDR inh
CSCCC(NC(=O)c1ccc(Cl)cc1)C(=O)OCC(=O)c1ccc[nH]1 (configuration not stated)	1.6%
O=C(NC1CCN(S(=O)(=O)c2cccc(Cl)c2)CC1)C1CCCCC1	0.2%
CC1(CN2CCC(n3c(=O)[nH]c4ccccc43)CC2)OCc2ccccc2-n2cccc21 (configuration not stated)	-13.0%
Cc1ccc2c(c1)NC(=O)C(CC(=O)NC1CCCCC1C)O2 (configuration not stated)	-8.9%
O=C(CCn1c(=O)c2ccccc2n(CC(=O)Nc2ccc(F)cc2)c1=O)NCCc1ccccc1	-21.2%
CC(C)c1nc2sc3c(=O)[nH]cnc3c2c2c1CCCC2	4.9%
Cc1ccc2c(c1)N(CCCC(=O)NCCCN1CCCC1=O)C(=O)CO2	?
CCN(CCCNC(=O)c1ccc(Sc2ccc(Cl)cc2)c(NC(C)=O)c1)c1ccccc1	13.9%
Cc1ccc(S(=O)(=O)N2[C@@H](c3cccc(Cl)c3)C(C(=O)O)=CC[C@H]2c2ccc(Cl)c(Cl)c2)cc1	-20.5%
Cc1nc2ccccc2n1CC(O)COCC1CC=CCC1 (configuration not stated)	19.6%
CCc1ccc(C(=O)COC(=O)c2ccc(-c3nnc(-c4ccccc4)o3)cc2)cc1	-1.1%
Cc1ccc(N2CN=c3s/c(=C\c4cccnc4)c(=O)n3C2)cc1	9.0%
CCOc1ccc(OCC(=O)OC(C)C(=O)Nc2ccc(Cl)cn2)cc1 (configuration not stated)	-2.1%
COCCn1c(SCc2nc3sc(C(=O)OC)c(C)c3c(=O)[nH]2)nc2ccccc21	2.2%
C/C=C/n1ccnc1CC(O)(c1ccccc1)c1ccc(C)cc1 (configuration not stated)	5.8%
CCOC(=O)/C(=N\Nc1ccc(OC)cc1)c1csc(Nc2ccccc2)n1	-5.5%
O=C(O)c1[nH]c2ccccc2c1CC(=O)N1CCN(c2ccccc2)CC1	9.5%
O=c1cc(N2CCC3(CC2)OCCO3)[nH]c(=O)n1C1CCCCC1	9.1%
Cc1ccc(C2CC2c2n[nH]c(=S)n2-c2ccc(Cl)cc2)cc1 (configuration not stated)	3.4%
O=C(CCC(=O)N1CCN(S(=O)(=O)c2ccc(Cl)cc2)CC1)Nc1ccc2ccccc2c1	14.0%
CCOCCCNC(=O)C(NC(=O)c1cnccn1)c1ccc(C)cc1 (configuration not stated)	-1.0%
CCn1cc(S(=O)(=O)N2CCCC2)cn1	-0.1%
CC(C)OCCCn1c(SCc2ccccc2Cl)nc2c(sc3ccccc32)c1=O	-0.2%
COC(=O)c1ccc(NC(=O)COc2ccc([N+](=O)[O-])cc2)cc1	-0.3%
CSc1nnc([C@H](Cc2c[nH]c3ccccc23)NC(=O)OC(C)(C)C)o1	5.9%
CN(CC(=O)Nc1ccc(F)c(F)c1F)C(=O)C1CC(=O)N(c2ccc3c(c2)OCCO3)C1 (configuration not stated)	8.3%
O=c1c2ccccc2ncn1Cc1ccc(Cl)c(Cl)c1	-10.0%
COc1cccc(NC(=O)C2CCCN(S(C)(=O)=O)C2)c1 (configuration not stated)	-23.5%
CCCCN(C(=O)Cn1nnc2ccccc21)C(C(=O)NCCOC)c1cccs1 (configuration not stated)	-5.4%
SMILES	VDR inh
Cc1nc(Oc2ccccc2)c2oc3ccccc3c2n1	-2.5%
CCN(CC(=O)Nc1ccc(OC)cc1)CC(=O)Nc1sc2c(c1C(=O)OC)CCCC2	-11.6%
CCN(c1ccccc1)S(=O)(=O)c1cc(C(=O)NCC(c2ccco2)N2CCCCC2)ccc1C (configuration not stated)	-20.6%
Cc1cc(SCC(=O)NC2CC2)nc2ccccc12	9.2%
O=C(Nc1ccc(Br)cc1)c1csc(-c2ccncc2)n1	-35.6%
CN1C(=O)c2cccc(NC(=O)Cc3ccccc3)c2C1=O	-11.1%
O=C(Nc1ccc(Cl)cc1Cl)c1ccc2c(=O)n3c(nc2c1)CCC3	-14.1%
CCCNC(=O)NNC(=O)c1cc(-c2ccc3c(c2)OCO3)nc2ccccc12	6.5%
COCCCNC(=O)c1ccc(NC(=O)N2CCCCc3ccccc32)cc1	-8.1%
COc1ccccc1CNC(=O)C1Cc2cc(S(=O)(=O)N3CCCC3)ccc2N1C(C)=O (configuration not stated)	3.6%
Cc1csc2ncc(C(=O)Nc3ccccc3Cl)c(=O)n12	-12.0%
Cc1ccc(C(=O)NC(C)c2ccc(F)cc2)cc1 (configuration not stated)	-21.7%
CCN(CCCn1c(=S)[nH]c2ncccc2c1=O)c1ccccc1	0.8%
O=C(CNS(=O)(=O)Cc1ccccc1)NCc1ccccc1	1.8%
Fc1cnc(N/N=C/c2ccc(-c3ccc(Br)cc3)o2)nc1N1CCOCC1	12.7%
O=C(N/N=C/c1c(Cl)cccc1Cl)c1ccc(-n2cnnn2)cc1	-9.5%
Cc1ccc(CN2CC(C(=O)NCC(=O)Nc3c(C)cccc3C)CC2=O)cc1 (configuration not stated)	7.3%
CSc1ccc(CCNC(=O)CN2C(=O)COc3ccc(S(=O)(=O)N4CCCC4)cc32)cc1	-2.5%
O=C1COc2cc(S(=O)(=O)CCC(=O)NC3CCCCC3)c(Cl)cc2N1	-13.1%
CCn1c(N2CCN(C(=O)C34CC5CC(CC(C5)C3)C4)CC2)nc2ccccc21	3.3%
O=C(COc1coc(CN2CCc3ccccc32)cc1=O)Nc1ccccc1	10.8%
CCC(CC)C(=O)c1c[nH]c(C(=O)NCCc2ccccn2)c1	7.6%
N=C1CCCN1CC(=O)c1cccs1	0.2%
